High-throughput results deposited in PubChem BioAssay by National Center for Advancing Translational Sciences (NCATS).
VDR inhibitor – blocks the human vitamin D receptor; P11473; VDR-SRC2-3 peptide fluorescence polarization, 2 h; Potency, µM, for inactives: max response, negative = inhibition, hits mostly inhibitors; 0.93% of 400,000 active; active means well fitted inhibition curve with a large enough effect; inconclusive means small, poorly fitted or top-dose-only effect, or another doubt; inactive means no such curve, though single readings can be large or run the other way; further: series mostly up to about 120 µM
Target sequence (P11473 whole entry, looked up): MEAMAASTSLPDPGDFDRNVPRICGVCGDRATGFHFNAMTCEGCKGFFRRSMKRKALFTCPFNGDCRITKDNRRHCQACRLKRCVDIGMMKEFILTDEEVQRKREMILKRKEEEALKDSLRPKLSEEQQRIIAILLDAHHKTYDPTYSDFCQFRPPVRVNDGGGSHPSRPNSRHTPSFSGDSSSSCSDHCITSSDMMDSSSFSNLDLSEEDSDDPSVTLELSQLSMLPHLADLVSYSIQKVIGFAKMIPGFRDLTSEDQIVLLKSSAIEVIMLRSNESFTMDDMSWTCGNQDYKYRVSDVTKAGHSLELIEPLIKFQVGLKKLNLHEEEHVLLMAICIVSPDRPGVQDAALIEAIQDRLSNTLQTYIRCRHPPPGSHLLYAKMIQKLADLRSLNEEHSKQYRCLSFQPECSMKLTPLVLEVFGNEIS
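Fluorescence polarization assay of small-molecule disruption of VDR binding to coregulator peptide SRC2-3. Compounds and controls pin-transferred, then read after 2 h incubation at ambient room temperature.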
* = called active by the depositor; ? = inconclusive; & = joins results of further samples; ! = repeats disagree; [ ] = another dose, or the depositor's remark. On the % scale 0 is the no-effect control and ±100 the full control effect; potency means the concentration at half of the fitted maximal effect.

item	Molecule	VDR inhibitor
1	NS(=O)(=O)c1cccc(NC(=O)CSc2nnc(-c3ccncc3)n2C2CC2)c1	10%
2	Cc1nc(=O)c(-c2ccccc2)c(C)n1-c1cccc(/C=C/C(=O)O)c1	-14%
3	CN(C(=O)COC(=O)c1ccc(Br)c(S(=O)(=O)N2CCOCC2)c1)C1CCCCC1	-17%
4	C[n+]1cn(CC(O)COCc2ccccc2)c2ccccc21 (centres undefined)	2%
5	CCOC(=O)c1c(C)[nH]c(C)c1C(=O)COC(=O)c1ccc(OC)c(OC)c1	-11%
6	COc1ccc(Cl)cc1S(=O)(=O)Nc1ccc(Cl)cn1	-5%
7	CCOC(=O)N1CCC(N2CCN(S(=O)(=O)c3ccc(NC(C)=O)cc3)CC2)CC1	10%
8	COC(=O)c1c(N(S(C)(=O)=O)S(C)(=O)=O)sc2c1CCN(c1ncc(C(F)(F)F)cc1Cl)C2	-1%
9	Cc1ccccc1Cn1nnc2c(=O)[nH]c(C3CCN(C(=O)c4ccccc4)CC3)nc21	-5%
10	CC(C)C1C(C#N)=C(N)Oc2n[nH]c(C(C)(C)C)c21 (centres undefined)	-6%
11	COCc1c(C(=O)N/N=C/c2ccco2)nnn1-c1nonc1N	?
12	O=C1C=Cc2ccccc2/C1=C/c1[nH]c(=O)[nH]c1O	0%
13	O=C(Oc1cccc2cccnc12)c1ccc(Br)o1	5%
14	COc1ccc2c(c1)c(CC(=O)Nc1cc(C)ccc1C)c(C)n2C(=O)c1ccc(Cl)cc1	-19%
15	Cc1cc(=O)[nH]c(NC(=O)Cc2ccccc2)n1	5%
16	CC(C)CC(N=C1NC(C)(C)Cc2ccccc21)C(=O)O (centres undefined)	6%
17	COCCn1c(=O)cnc2cnc(Oc3ccccc3)nc21	7%
18	CCOC(=O)c1nnn(-c2nonc2N)c1CNC(C)C	-7%
19	Cc1cc(S(=O)(=O)N2CCCCC2)ccc1OCC(=O)N1CCCC1	-11%
20	NC(C(=O)O)c1cc(O)c(Cl)c(O)c1 (centres undefined)	2%
21	Cc1nnc(SCC(=O)Nc2cc(S(=O)(=O)N3CCCC3)ccc2Cl)n1C1CC1	0%
22	Fc1cccc(Nc2ncnc3sccc23)c1	-8%
23	CCn1c2ccccc2c2nnc(N3CCN(c4cccc(C)c4C)CC3)nc21	0%
24	CCOC(=O)C1=C(C)Nc2ccccc2N=C1NC(=O)c1cc(C)on1	3%
25	Cc1cccc(N2C(S)=C(C#N)C(=O)NC2c2cccs2)c1 (centres undefined)	50µM*
26	Cc1ccc(CSC2=NCCN2C(=O)c2ccc(S(=O)(=O)N(C)C)cc2)cc1	2%
27	COc1ccccc1/C=C/CN1CCN(Cc2ccc(F)cc2)C(CCO)C1 (centres undefined)	-8%
28	Cc1ccccc1OCCOCCN1CCCCCC1	8%
29	COc1ccc(/C(=N\O)c2ncc(C(F)(F)F)cc2Cl)cc1	-4%
30	C[C@@H]1O[C@@H](OC[C@@H]2O[C@H](Oc3c(-c4ccc(O)cc4)oc4cc(O)cc(O)c4c3=O)[C@@H](O)[C@H](O)[C@H]2O)[C@H](O)[C@H](O)[C@H]1O	30%[activator]
31	Cc1cccc(Nc2nc(N3CCCC3)nc(N3CCCC3)n2)c1	-8%
32	COc1ccccc1C(=O)Nc1ccc2[nH]ncc2c1	-3%
33	Cc1cc(C)c[n+](C[n+]2cc(C)cc(C)c2)c1	-15%
34	CC1=CC(C)(C)N(C(=O)CSc2nnc(N)s2)c2c(C)cc(C)cc21	-12%
35	CCOC(=O)N1CCN(C(=O)c2cc(OC)c(OC)c(OC)c2)CC1	-9%
36	Cn1c(=O)c2c(nc(CN3CCc4ccccc4C3)n2Cc2ccc(F)cc2)n(C)c1=O	-18%
37	Cn1nc(C(F)(F)F)c(-c2ccccc2)c1NC(=O)c1cccnc1	4%
38	O=c1c2nnn(-c3ccc(Cl)cc3)c2ncn1Cc1ccccn1	-16%
39	Cc1ccc(C(=O)O)cc1NC(=S)NCCc1ccccc1	16%
40	CCc1ccccc1NC(=O)NCc1ccc2c(c1)CCN2C(=O)c1ccccc1	2%
41	Cn1c(=O)c2c(nc(NN=C3CCCC3)n2C)n(C)c1=O	-6%
42	CC1CCN(S(=O)(=O)c2cc(C(=O)N3CCN(c4ncccn4)CC3)ccc2Br)CC1	-16%
43	CNS(=O)(=O)c1cc(NC(=O)CCNC(=O)c2ccco2)ccc1C	-12%
44	CCc1ccc(OCC(=O)NNC(=O)c2ccc(NC(=O)C3CC3)cc2)cc1	22%
45	CCCC(=O)c1ccc(N2CCN(C(=O)OCC)CC2)c(F)c1	1%
46	O=C(COC(=O)c1cc2ccccc2oc1=O)Nc1ccc(F)cc1F	5%
47	Cc1ccc(-c2nn(-c3ccc(F)cc3)cc2C(=O)NCC(c2cccs2)N2CCOCC2)cc1 (centres undefined)	-8%
48	Cc1ccc(NCC(=O)N/N=C/c2ccc(-c3cccc(C(F)(F)F)c3)o2)cc1	-1%
49	COc1ccc(S(=O)(=O)Nc2ccc3c(c2)C(=O)N([C@H](C)CO)C[C@H](C)[C@@H](CN(C)C(=O)NC(C)C)O3)cc1	-14%
50	CSC1=C(C#N)C(c2ccccc2Cl)C(C(=O)c2cccs2)C(O)(C(F)(F)F)N1 (centres undefined)	-1%
51	COc1cc(-c2nc(CCNC(=O)c3ccco3)cs2)cc(OC)c1OC	-16%
52	CCc1ccc(NCc2cc3ccc(OC)cc3n(CC(=O)Nc3ccc(C(C)C)cc3)c2=O)cc1	-7%
53	Cc1cc(S(=O)(=O)N2CCOCC2)ccc1OCC(=O)NCCN1CCOCC1	-18%
54	Cc1ccc(C(NC(=O)c2ccccc2)C(Cl)Cl)cc1 (centres undefined)	3%
55	CCN1CCN(Cc2nc3c(c(=O)[nH]c(=O)n3C)n2Cc2ccccc2Cl)CC1	-17%
56	CC(=O)Nc1ccccc1-c1ccccc1[N+](=O)[O-]	-1%

Further records.
item	Molecule	VDR inhibitor
57	O=C(CSCn1nnc2c(=O)[nH]c(Cc3ccc(F)cc3)nc21)Nc1ccccc1	3%
58	Cn1c(-c2ccccc2)cnc1NCc1ccc(F)cc1	0%
59	COCCN=c1scc(-c2cc(OC)c(OC)c(OC)c2)n1/N=C/c1c(C)[nH]c2ccccc12	5%
60	CC(=O)c1cc(C(=O)NC2CCCc3c2cnn3-c2cc(C)cc(C)c2)[nH]n1 (centres undefined)	2%
61	COc1ccc2c(c1)O[C@@H](c1cccc(C(F)(F)F)c1)[C@H](OC(=O)NS(=O)(=O)c1ccc(F)cc1)C2=O	-3%
62	CCOc1ccc(Cn2nnc(C(=O)NCCc3ccc(Cl)cc3)c2N)cc1	-10%
63	CCOC(=O)c1cc(NC(=O)CCC(=O)O)ccc1N1CCCCC1	21%
64	CC(C)(C)OC(=O)N1CCC(C(=O)Nc2ccc(C(=O)N3CCCCC3)cc2)CC1	18%
65	N#Cc1c(-c2ccc(Cl)cc2)c2c([nH]c1=S)CCCC2	-5%
66	CCC(C)N(C(=O)c1csnn1)C(C(=O)NC1CCCC1)c1ccccc1F (centres undefined)	-4%
67	O=C(CCNC(=O)C1CCN(S(=O)(=O)c2ccccc2)CC1)Nc1ccccc1	-11%
68	O=C(Nc1ccccc1N1CCN(C(=O)c2ccc(Cl)cc2)CC1)c1cc(Br)ccc1Cl	10%
69	CCOC(=O)C1C(=O)C=C(/C=C/c2ccc(N(C)C)cc2)CC1c1ccccc1 (centres undefined)	-7%
70	CCCCn1c(SCC(=O)Nc2cc(C)on2)nc2c1c(=O)n(C)c(=O)n2C	0%
71	CCOC(=O)C1CCN(C(=O)C(CC)c2ccccc2)CC1 (centres undefined)	-10%
72	CC1CCCC(C)N1C(=O)CSc1nnc(CSc2ncccn2)n1C (centres undefined)	-9%

4 entries out of the list above, sorted by their value in VDR inhibitor, lowest first.
no. | structure | VDR inhibitor
34 | CC1=CC(C)(C)N(C(=O)CSc2nnc(N)s2)c2c(C)cc(C)cc21 | -12%
31 | Cc1cccc(Nc2nc(N3CCCC3)nc(N3CCCC3)n2)c1 | -8%
41 | Cn1c(=O)c2c(nc(NN=C3CCCC3)n2C)n(C)c1=O | -6%
63 | CCOC(=O)c1cc(NC(=O)CCC(=O)O)ccc1N1CCCCC1 | 21%

Following part:
item	Molecule	VDR inhibitor
73	COc1cccc(Cn2c(NCC(C)C)nc3c2c(=O)n(C)c(=O)n3C)c1	13%
74	COc1ccc(-n2ccn(CC(=O)Nc3ccccc3C(F)(F)F)c(=O)c2=O)cc1OC	4%
75	O=C(Nc1nc(-c2cccs2)cs1)C1CC(=O)N(c2ccc3c(c2)OCCO3)C1 (centres undefined)	0%
76	CSc1nc(-c2ccc(Cl)cc2)c(C#N)c(=O)n1C	9%
77	CCOc1ccc(C(=O)NCc2ccncc2)cc1	8%
78	O=[N+]([O-])c1cc(Br)c(OCc2nnc(-c3ccccc3)o2)c(Br)c1	1%
79	C=C1c2cccc(C(F)(F)F)c2O[C@H](C(=O)OCC)C1OC (mixture of isomers)	-3%
80	COc1ccc2c(=O)c(-c3ccc(OC)c(OC)c3)coc2c1	2%
81	CCOc1ccc(NC(=O)CSc2nnc(-c3ccoc3C)n2CC2CCCO2)cc1 (centres undefined)	-2%
82	O=C(CSCc1ccccc1Cl)NN1C(=O)c2ccccc2C1=O	6%
83	CC(C)c1ccc(NC(=O)C2CC(=O)Nc3nc4ccccc4n32)cc1 (centres undefined)	-9%
84	CCOC(=O)c1c(N)nn(C(=O)C(C)(C)C)c1-c1ccccc1	-5%
85	COc1ccc(OC)c(NC(=O)CN2C(=O)c3ccccc3Sc3ccc(C(=O)N4CCCC4)cc32)c1	19%
86	Cc1c(C(=O)N/N=C/c2ccc(O)cc2)sc(=S)n1C	-12%
87	CCOc1ccc(CNC(=O)c2ccc3c(c2)N(Cc2ccccc2)CCS3)cc1	-27%
88	O=C(Nc1nnc(SCc2ccccc2Cl)s1)c1cccc([N+](=O)[O-])c1	?
89	CCN(CC)CCC(=O)N1c2ccccc2Sc2ccc(Cl)cc21	50µM*!
90	COc1ccc(/C=N/Nc2cc(C)nc(-n3nc(C)cc3C)n2)c(OC)c1	-2%
91	CCOc1ccc(C(NC(=O)c2cc(OC)c(OC)c(OC)c2)c2cc(Cl)c3cccnc3c2O)cc1 (centres undefined)	2%
92	CCc1ccc(-c2cc(C)no2)cc1S(=O)(=O)Nc1cc(OC)c(OC)c(OC)c1	4%
93	Fc1ccc(-c2n[nH]c(=S)n2/N=C/c2c[nH]c3ccccc23)cc1	-19%
94	COc1ccc([N+](=O)[O-])cc1NS(=O)(=O)c1ccc(C)cc1	11%
95	O=C(Nn1cnc2ccccc2c1=O)c1ccc(Br)cc1	2%
96	COc1ccc(CCNC(=O)COC(=O)c2cnc(Cl)c(Cl)c2)cc1	-13%
97	CC1CCC(NC(=O)Cn2ncc3c4ccccc4n(Cc4ccc(F)cc4)c3c2=O)CC1 (centres undefined)	15%
98	COc1ccc(OC)c(NC(=O)c2cc(S(=O)(=O)NCc3ccco3)ccc2F)c1	-20%
99	COCCNC(=O)CN(c1ccc(OC)c(OC)c1)S(=O)(=O)c1ccc(C)cc1	-15%
100	COc1cccc(CNC(=O)CC(NC(C)=O)c2ccccc2)c1 (centres undefined)	-20%
101	O=C(CSc1nnnn1-c1ccc(F)cc1)NNC(=O)c1ccco1	-5%
102	Cc1ccc(C(=O)CNc2ccc(C)cc2C)cc1	-20%
103	S=c1[nH]nc(-c2ccc(Br)cc2)n1Cc1ccco1	-3%
104	O=C(CN1CCN(Cc2ccccc2)CC1)N/N=C/c1cccnc1	-6%
105	NC(=NC(=O)c1ccc(Cl)cc1)N1N=CCC1c1ccccc1 (centres undefined)	-2%
106	CN1CC(c2ccc(Cl)c(Cl)c2)[C@@]2(COc3ccccc3C2=O)[C@@]12C(=O)Nc1ccccc12 (some centres undefined)	-4%
107	O=C(O)CCc1n[nH]c(=S)[nH]c1=O	-21%
108	CC1CCCC(C)N1/N=C/c1ccc(Cl)cc1 (centres undefined)	5%
109	Brc1ccc(Nc2ncnc3[nH]ncc23)cc1	-10%
110	O=C(O)c1cccc2c1C(=O)c1ccccc1C2=O	-11%
111	N#Cc1ccc(Cl)cc1NC(=O)COC(=O)c1ccc(S(=O)(=O)N2CCCC2)cc1	-2%
112	O=C(Nc1ccccn1)NC1CCS(=O)(=O)C1 (centres undefined)	4%
113	CN(c1ccccc1C(=O)Nc1ccc2c(c1)n(C)c(=O)n2C)S(C)(=O)=O	10%
114	CCc1ccccc1NC(=O)Cc1cn(C)c2ccccc12	10%&-17%
115	O=C(Nc1c2c(nn1-c1ccc(Cl)cc1)CS(=O)(=O)C2)c1ccc2c(c1)OCO2	2%
116	CC(=O)NCCC(=O)Nc1ccc(F)cc1C	-6%
117	CCOC(=O)Cn1c(=O)oc2cc(S(=O)(=O)N3CCN(c4ccc(F)cc4)CC3)ccc21	9%
118	CCOc1ncccc1C(=O)N1CCCSC1=Nc1ccc(C(C)=O)cc1	-8%
119	COc1ccccc1C(=O)c1cn(CC(=O)Nc2ccccc2F)c2nc(C)ccc2c1=O	10%
120	Cn1ccnc1Sc1ccc(C=O)cc1[N+](=O)[O-]	9%
121	Cc1ccc(CNC(=O)c2nnn(-c3cccc(C)c3)c2N)cc1	4%
122	COC(=O)NNC(=O)COc1ccc(Br)c(C)c1	7%
123	COc1ccc(C(CCNC(C)c2ccccc2)C(C)C)cc1 (centres undefined)	-17%
124	COc1ccccc1CC(=O)N1CCN(c2ccc(F)cc2)CC1	-2%
125	O=C(CCNC(=O)c1ccc([N+](=O)[O-])cc1)Nc1ccc(N2CCOCC2)cc1N1CCOCC1	-8%
126	CCOc1ccccc1OCC(=O)Nc1cc(S(=O)(=O)N2CCCCC2)ccc1OC	?

These rows are one share of the data. The share of hits here may be higher or lower than overall.
